Screening data from PubChem BioAssay.
Rango dissoc inh = inhibition of RanGTP-driven Rango-importin beta dissociation; Biochemical FRET Rango-importin beta, RanGTP-induced dissociation; O95149+P62826; AID 540253; actives 0.071% (n = 340,000); Potency, µM (highest dose often 46.1 µM), for inactives: at the top dose activity change, negative = inhibition; active means falling FRET ratio curve, often poorly fitted, with flat reads before Ran was added; inconclusive means other falling curves, or compound fluorescence or quenching; inactive means flat or rising ratio curve;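 note: potency is the fitted concentration of half-maximal effect; % of control where 0% means no effect; nearly all actives have a fitted effect of over 45% in size; -100% = wells without RanGTP and RCC1; the record marks most hits as doubtful in a second field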
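Quantitative HTS using a FRET biosensor: 0.1 uM Rango, 0.25 uM importin beta, 0.6 uM Ran, 2 mM GTP, 0.2 uM RCC1 final, PBS with DTT, Tween-20 and BSA. Post-read taken 45 min after Ran addition.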
miR-21 reporter = miR-21 reporter, rising signal | Potency, µM (highest dose often 38.3 µM), without a hit: at the highest dose reporter change, positive = more light | AID 2288 | 340,000 tested, under 10 active | HeLa miR-21 FLuc reporter, luciferase, 48 h; active = well fitted rising curve with a large enough effect; inconclusive = small, poorly fitted or top-dose-only effect; inactive = no such curve, though single readings can be large or run the other way;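 note: % of control where 0% means no effect; miR-21 action dims this reporter so a rising signal means less miR-21 action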
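Compounds were titrated across several concentrations (up to approximately 40 uM) and incubated 48 hours with HeLa miR-21-FLuc reporter cells (miR-21 target sequence downstream of FLuc, endogenous miR-21). Readout was firefly luciferase luminescence after lytic detection reagent.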
Rango-impB inh = prevents formation of the Rango-importin beta complex. actives 0.031% (n = 340,000). Rango CFP/YFP FRET sensor + importin beta, 45 min. Potency, µM (doses to about 92.2 µM), inactives show at the top dose inhibition of complex formation. Q14974; active = rising FRET ratio curve, often small or poorly fitted; inconclusive = mostly compound fluorescence or quenching in the first reads; inactive = flat curves in all reads;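 note: potency is the fitted concentration of half-maximal effect; 0% = DMSO wells and 100% = buffer wells lacking importin beta; nearly all actives have a fitted effect of over 15% in size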
Target sequence (Q14974 whole entry, looked up): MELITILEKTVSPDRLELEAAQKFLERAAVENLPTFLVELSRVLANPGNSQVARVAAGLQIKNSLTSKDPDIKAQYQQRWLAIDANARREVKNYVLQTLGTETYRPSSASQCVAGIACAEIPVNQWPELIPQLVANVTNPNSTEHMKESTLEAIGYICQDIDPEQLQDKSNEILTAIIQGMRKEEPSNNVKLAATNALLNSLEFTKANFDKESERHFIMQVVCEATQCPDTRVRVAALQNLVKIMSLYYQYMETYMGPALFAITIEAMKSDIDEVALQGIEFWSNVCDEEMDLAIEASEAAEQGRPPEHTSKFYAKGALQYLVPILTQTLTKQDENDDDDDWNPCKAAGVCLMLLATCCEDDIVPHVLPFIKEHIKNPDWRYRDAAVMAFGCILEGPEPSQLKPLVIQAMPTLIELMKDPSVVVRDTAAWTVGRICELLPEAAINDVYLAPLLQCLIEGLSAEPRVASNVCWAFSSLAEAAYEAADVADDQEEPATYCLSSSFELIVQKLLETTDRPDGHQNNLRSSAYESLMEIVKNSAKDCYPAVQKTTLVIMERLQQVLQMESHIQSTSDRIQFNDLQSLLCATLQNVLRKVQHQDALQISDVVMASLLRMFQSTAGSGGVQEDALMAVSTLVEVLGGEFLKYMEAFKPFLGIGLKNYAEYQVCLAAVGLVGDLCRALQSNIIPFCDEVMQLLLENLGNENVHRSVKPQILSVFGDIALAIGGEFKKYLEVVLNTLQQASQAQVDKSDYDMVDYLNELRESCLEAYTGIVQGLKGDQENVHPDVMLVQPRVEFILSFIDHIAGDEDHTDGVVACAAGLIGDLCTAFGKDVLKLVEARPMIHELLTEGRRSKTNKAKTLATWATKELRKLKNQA
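FRET biosensor (snurportin 1 IBB flanked by EYFP and cerulean), 50 nM, with compound 5 min, then 0.125 microM importin beta in PBS, 1 mM DTT, 0.02% Tween-20, 0.1% BSA. CFP/YFP ratio read after 45 min at room temperature; pre-read flags interference.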
GLA inh pH 4.5 = inhibitors of human alpha-galactosidase A at pH 4.5; P06280; purified enzyme, 4-MU-alpha-Gal fluorescence, pH 4.5; activity change, negative = inhibition, % at 105 µM; 230,000 tested, under 10 active; inconclusive = small, poorly fitted or top-dose-only inhibition, or a rising curve; inactive = flat fitted curve, though single readings scatter; no compound was filed as active;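 note: 0% = full activity with enzyme and -100% = basal without enzyme; dose as in the result columns while the protocol names 77 µM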
Starred values were filed as active, the others as inactive; ? = inconclusive; . = not tested or not shown; & = joins results of further samples; [ ] = another dose, or the depositor's remark.

Rango dissoc inh	miR-21 reporter	molecule	Rango-impB inh	GLA inh pH 4.5
-14%	-6%	COc1cccc(C2=Nn3c(nnc3-c3ccccc3O)SC2)c1	-3.2%	-3
1%	-13%	COc1ccccc1Cn1nnc2c(=O)[nH]c(C3CCN(C(=O)c4ccccc4Cl)CC3)nc21	-2.1%	2
-1%	0%	Cc1coc(=N)n1CC(=O)c1ccc(Cl)cc1	6.2%	6
-8%	-7%	CCN(CC)CCn1c(N)nc2ccccc21	-2.7%	0
19%	.	COc1ccc(NC(=O)CC2SC(N3CCCCC3)=NC2=O)cc1OC (stereo not drawn)	0.1%	.
3%	-10%	CC(=O)c1ccc(NC(=S)N(CCCN(C)C)Cc2ccccc2)cc1	-2.5%	-1
9%	14%	CCOC(=O)c1cc(NC(=O)Nc2ccc(Br)cc2)c(C)nc1C	-3.0%	5
-7%	-24%	COc1ccc(CC(=O)O/N=C(\N)c2ccccn2)cc1OC	0.5%	.
12%	3%	COC(=O)c1ccccc1NC(=O)NCc1c(C)nn(C)c1C	-1.0%	3[21.1 µM]
-22%	0%	CC(C(=O)NC1CCCCC1)N1C(=O)c2cccc3cccc1c23 (stereo not drawn)	?	.
4%	-3%	COc1ccc(C(=O)Oc2cc(/C=N/NS(=O)(=O)c3ccc(C)cc3)ccc2OC)cc1	-3.2%	-1
-2%	-5%	CCOC(=O)c1cc(-c2ccccc2)n(CC(=O)Nc2ccc(OC)cc2)c1C	2.8%	5
10%	-29%	O=c1c2ccccc2ncn1CCCSc1ccccc1	1.2%	-10
-11%	-9%	CCCC(=O)Nc1nnc(-c2ccc(Cl)s2)o1	-3.9%	-1
-23%	-13%	C=CCOc1ccc2nnc(C)n2n1	1.5%	7
3%	1%	Cc1ccc(Cl)cc1NC(=O)COC(=O)c1ccccc1O	2.5%	8
0%	6%	CCC(C)c1ccccc1NC(=O)c1[nH]c(C)c(C(C)=O)c1C (stereo not drawn)	-3.4%	.
2%	.	COc1ccc(-c2sc3cc(OC)c(OC)cc3c2C#CC(C)(C)O)cc1	1.6%	.
17%	-3%	CN1CCN(C(=O)c2cc3nc(-c4ccc(F)cc4)cc(C(F)(F)F)n3n2)CC1	0.3%	-3
-7%	-7%	COc1ccccc1CNC(=O)C(C)NS(=O)(=O)c1ccc(C)cc1 (stereo not drawn)	-4.1%	-6
?	-11%	COc1ccc(-c2c3c(nc4sc(C(=O)Nc5cc(C)on5)c(N)c24)CCC3)cc1	?	-11
0%	-3%	O=S(=O)(c1ccc2ccccc2c1)n1cnc2ccccc21	-0.7%	-4
34%	-7%	CC/C(C)=C1\SC(N2CCN(C(C)=O)CC2)=NC1=O	2.7%	4
3%	-1%	Cc1ccc(C(=O)O)cc1NC(=O)CCc1ccccc1	-2.1%	7
5%	2%	CC(=O)Nc1cc(S(=O)(=O)Nc2ccccc2C)c(C)cc1C	-0.2%	2
-3%	-1%	CC(=O)Nc1ccc(SCC(=O)O)cc1	2.9%	-26
1%	-3%	COCCCn1c(SCC(=O)Nc2nnc(C)s2)nnc1-c1ccoc1C	-0.1%	-12
-1%	-58%	CC1CCc2c(C(=O)Nc3ccccn3)csc2C1 (stereo not drawn)	0.8%	-12
-10%	0%	COc1ccccc1NC(=O)c1cc(=O)[nH]c2ccccc12	-1.3%	.
10%	-5%	COc1cccc(OC)c1OCCCN1CCOCC1	0.7%	1

Later entries.
Rango dissoc inh	miR-21 reporter	molecule	Rango-impB inh	GLA inh pH 4.5
-6%	-18%	CCN(Cc1cnn(C)c1)Cc1nc(Cc2ccccc2Cl)no1	1.6%	1
15%	.	Nc1nc(-c2ccccc2)c(CCCNc2ccccc2)c(=O)[nH]1	-0.5%	.
-4%	.	CCN(CC)c1nc(N)c(C#N)c(CC#N)c1C#N	-6.1%	.
14%	-4%	COc1ccccc1N1C(=O)CC(N(O)c2ccccc2)C1=O (stereo not drawn)	-0.1%	-1
19%	.	C[C@H](CO)N1C[C@H](C)[C@@H](CN(C)Cc2ccc(C(=O)O)cc2)Oc2c(cccc2N(C)C)C1=O	2.8%	.
22%	-8%	COc1ccc(-c2nc3ccccc3c(=O)n2N)cc1	-0.5%	0
-13%	-8%	O=C(CSc1nc2ccccc2o1)N/N=C/c1ccc(C(=O)O)cc1	?	-3
-10%	-1%	CC12CS(=O)(=O)CC1SC(=S)N2Cc1ccccc1 (stereo not drawn)	2.8%	5
-7%	-3%	Cc1cc(Nc2ccccc2Cl)n2nnnc2n1	3.9%	6
-12%	-17%	C/C(=N\NC(=O)c1ccc(NS(=O)(=O)c2cccs2)cc1)c1cccs1	3.2%	11
-10%	.	COc1ccc(S(=O)(=O)N(C)C[C@H]2Oc3ccc(NC(=O)Nc4ccc(C(F)(F)F)cc4)cc3C(=O)N([C@H](C)CO)C[C@@H]2C)cc1	1.2%	.
-7%	-1%	O=C1CC(N2CCSCC2)C(=O)N1c1cccc(Cl)c1 (stereo not drawn)	-1.1%	-1
-6%	-35%	Cc1oc(C(C)(C)C)cc1C(=O)Nc1ccc2c(c1)OCO2	2.6%	-14
-13%	-8%	C(=N\Nc1nn2cnnc2c2ccccc12)/c1ccco1	-1.0%	2
-4%	-2%	O=C(/C=C/c1ccccc1)NC(N1CCOCC1)C(Cl)(Cl)Cl (stereo not drawn)	-1.2%	-25
28%	8%	CCN(CC)S(=O)(=O)c1ccc(N2CCOCC2)c(NC(=O)c2cc(=O)[nH]c3ccccc23)c1	0.5%	1
2%	-19%	O=C1OC(c2ccc(Cl)cc2)/C(=C(/O)c2ccccc2)C1=O (stereo not drawn)	0.1%	3
13%	-15%	Cc1ccc(CS(=O)(=O)c2cn(CC(=O)N3CCOCC3)c3ccccc23)cc1	-0.1%	.
-13%	.	Cc1ccc(C(=O)COC(=O)CCNS(=O)(=O)c2ccccc2F)cc1	-4.1%	.
-21%	-2%	COc1ccc(/C(O)=C2/C(=O)C(=O)N(c3ncccn3)C2c2ccc(OC)c(OC)c2)cc1 (stereo not drawn)	0.7%	-12
1%	-21%	Cc1nc(C/C(=N\Nc2ccccc2)c2ccc(O)cc2O)cs1	-0.4%	7
-2%	15%	O=C(CSc1nnc2n(C3CCCC3)c(=O)c3ccccc3n12)N1CCCCCC1	0.5%	8
?	.	COc1ccc(S(=O)(=O)NC2CC(=O)N(c3ccccc3)C2)cc1C (stereo not drawn)	-1.6%	.
0%	-29%	Nc1nc(NCCOCCO)nc(NC2CCCCC2)c1[N+](=O)[O-]	0.3%	.
5%	-27%	CCN(CC(=O)Nc1sc2c(c1C#N)CCC(C)C2)CC(=O)NC1CCS(=O)(=O)C1 (stereo not drawn)	0.3%	1
-2%	-55%	Nc1nc(N)nc(COc2ccccc2)n1	1.8%	-29
2%	3%	Cc1[nH]c2ccccc2c1C(=O)C(=O)N1CCN(c2ccccc2Cl)CC1	0.8%	.
?	-3%	COC(=O)c1n[nH]c2ccccc12	?	2
8%	2%	CCN(CC)c1ccc(S(=O)(=O)N2CCOCC2)cc1NC(=O)c1cc(=O)c2ccccc2o1	-3.9%	-25
-8%	-1%	CCCNC(=S)N1CCC(C(=O)c2ccc3c(c2)OCCO3)CC1	-0.9%	-11

Full records from above. Screens in order: Rango dissoc inh	miR-21 reporter	Rango-impB inh	GLA inh pH 4.5
O=C(CSc1nc2ccccc2o1)N/N=C/c1ccc(C(=O)O)cc1 across the screens: -13%	-8%	?	-3
Nc1nc(NCCOCCO)nc(NC2CCCCC2)c1[N+](=O)[O-] across the screens: 0%	-29%	0.3%	.
CCN(CC)c1nc(N)c(C#N)c(CC#N)c1C#N across the screens: -4%	.	-6.1%	.
CC12CS(=O)(=O)CC1SC(=S)N2Cc1ccccc1 (stereo not drawn) across the screens: -10%	-1%	2.8%	5
Cc1nc(C/C(=N\Nc2ccccc2)c2ccc(O)cc2O)cs1 across the screens: 1%	-21%	-0.4%	7

Other entries:
Rango dissoc inh	miR-21 reporter	molecule	Rango-impB inh	GLA inh pH 4.5
10%	11%	COc1cc(/C=C2\SC(=Nc3ccccc3)N(Cc3ccco3)C2=O)ccc1OC(C)C(=O)O (stereo not drawn)	-3.5%	2
-14%	0%	O=C(CCn1nnc2ccccc2c1=O)NCC1CCC(C(=O)O)CC1 (stereo not drawn)	?	-3
8%	-3%	COc1cc(OC)nc(NC(=O)CSc2nc3ccccc3o2)n1	2.8%	7
6%	-27%	Cc1cc(OCC(=O)N(C)C2CCCCC2)ccc1Cl	1.2%	7
-6%	-1%	CCOc1ccc(S(=O)(=O)Nc2nc3ccc(OC)cc3s2)cc1	6.0%	-15
.	-4%	CSc1nc(NCc2ccco2)c2c3c(sc2n1)CN(C)CC3	.	9
0%	0%	CC(=O)N1c2c(cc(Br)cc2S(=O)(=O)Nc2c(C)n(C)n(-c3ccccc3)c2=O)CC1C (stereo not drawn)	1.9%	1
-2%	3%	COc1cc(OC)cc(C(=O)N[C@H](C(=O)OCn2nnc3ccccc3c2=O)C(C)C)c1	-0.3%	5
-9%	.	CCOc1ccc(OCCNC(=O)c2cc(C3CC3)nc3c2cnn3C(C)C)cc1	-1.7%	.
-7%	-14%	CCOc1ccc(NC(=O)C2=C(C)NC(=S)NC2c2ccc(O)c(OC)c2)cc1 (stereo not drawn)	-0.4%	-5
?	-53%	O=C(NCc1ccccc1)c1cc2ccc(O)cc2oc1=O	?	.
-22%	0%	CCC(C)NC(=O)Cn1cnc([N+](=O)[O-])c1 (stereo not drawn)	4.3%	-8
1%	.	CCN(Cc1cccs1)C(=O)c1cccc(S(=O)(=O)N2CCN(C)CC2)c1	-2.4%	.
18%	-20%	CCC(=O)N(C)CCc1cc2c(c(OC)c1/C=N/Nc1ccc(C(=O)O)cc1)OCO2	-0.1%	-7
-11%	-52%	O=c1[nH]c(-c2ccccn2)cc2ccccc12	1.6%	12
-6%	.	CCN1C[C@@H]2[C@@H]3C(=O)N(C)C(=O)[C@@H]3[C@](C)(C1=O)N2C(=O)c1ccc(Cl)c(Cl)c1	-5.7%	.
0%	1%	Cc1ccccc1C(=O)N1CCC(C(N)=O)CC1	4.9%	15
-21%	-8%	O=C(/C=C/c1ccc(Cl)cc1)Nn1c(-c2cccs2)nc2ccccc2c1=O	4.3%	6
6%	24%	CC(=O)/C(C#N)=C1\NC(=O)C(Cc2ccccc2)S1 (stereo not drawn)	3.9%	.
-4%	2%	CS(=O)(=O)c1ccc(-c2nnn(CC(=O)N3CCCCC3)n2)cc1	1.8%	.
3%	.	COC(=O)COc1ccc(C(=O)Cn2c(NCCCO)nc3ccccc32)cc1	0.2%	.
-8%	-4%	CC(=O)Nc1ccc(S(=O)(=O)N[C@@H](C)C(=O)OCc2cc([N+](=O)[O-])cc3c2OCOC3)cc1	?	8
-21%	8%	Cc1ccccc1CN1CCc2cc([N+](=O)[O-])ccc21	0.4%	.
-1%	-7%	CCN1CCN(c2nn3c(=O)c4ccccc4nc3c3ccccc23)CC1	-0.1%	9
-4%	-3%&7%	COc1ccc(CCNC(=O)CS(=O)Cc2nc(-c3ccccc3F)oc2C)cc1OC (stereo not drawn)	-3.7%	.
7%	0%	Cc1nc2c(C)cccn2c1C(=O)N/N=C/c1ccccc1[N+](=O)[O-]	1.2%	-2
?	.	Cc1ccc(C)c(NC(=O)c2cc(S(=O)(=O)N3CCCCC3)ccc2N2CCOCC2)c1	0.3%	.
-7%	-4%	Cc1ccccc1CS(=O)(=O)Cc1ccc(C(=O)NCCCN2CCOCC2)o1	-0.1%	0
-9%	29%	O=C(CNc1ccccc1)N/N=C/c1ccc([N+](=O)[O-])o1	5.3%	-9
-5%	1%	C=CCn1c(=O)c2c(nc3n2CCN3c2cccc(Cl)c2C)n(C)c1=O	-2.0%	3
18%	.	CC(C)Oc1ccccc1/C=N/NC(=O)C1CC1	-1.9%	.

Individual results from the list.
Rango-impB inh result of O=C1CC(N2CCSCC2)C(=O)N1c1cccc(Cl)c1 (stereo not drawn) reads -1.1%
Rango dissoc inh result of COc1cccc(OC)c1OCCCN1CCOCC1 reads 10%

Some of the compounds tested (hit frequency here may not be typical).
